Screening data deposited in PubChem BioAssay by Fisher Drug Discovery Resource Center.
NPYLR7 agonist = mosquito NPYLR7 agonism; 270,000 tested, 0.15% active; HEK293T NPYLR7/Galpha15, GCaMP6s calcium fluorescence; activation, % at 10 µM; in the data active = activation above about 40%;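 also: 0% = vehicle and 100% = reference agonist at the receptor; some compounds past the cut are filed as inactive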
NPYLR7 agonist max-min = also measured in NPYLR7 agonist; calls as there; activation, %; measured here: Max-Min RFU normalised activation; some inactives read as strong as hits;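 span of the calcium signal over five minutes; 0% = vehicle and 100% = native peptide agonist; compound fluorescence can raise it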
* = called active by the depositor; & = joins results of further samples. These rows are one share of the data. The share of hits here may be higher or lower than overall.

SMILES	NPYLR7 agonist	NPYLR7 agonist max-min
O=P(Nc1cccc(Cl)c1)(Oc1ccccc1)Oc1ccccc1	-2.1	-4.8
COC(=O)[C@@H]1C[C@@H](N(C)C)CN1C(=O)Cc1cn(C)c2ccccc12	2.3	0.1
COCCNC(=O)CN1C(=O)CSC(c2ccccc2Cl)c2c(-c3ccccc3)nn(-c3ccc(OC)cc3)c21 (configuration not stated)	-1.2	3.1
Cn1nnc(Nc2nnn(C)n2)n1	-10.1	-13.9
CCOC(=O)C(=O)NC1CCSC1=O (configuration not stated)	6.9	5.3
N#CC1C(=N)Oc2c(c(=O)oc3ccccc23)C1c1ccc(C(F)(F)F)cc1 (configuration not stated)	22.6	20.2
COc1ccc(-n2nc(-c3ccccc3)c3c2N(CC(N)=O)C(=O)CSC3c2ccc(F)cc2)cc1 (configuration not stated)	7.9	8.9
Cn1cc(C2=C(c3cn(C4CCN(Cc5ccccn5)CC4)c4ccccc34)C(=O)NC2=O)c2ccccc21	-5.3	-10.4
CN1CCN(C)C2(CCN(c3cc(NCCO)ncn3)CC2)C1	13.9	10.0
CCOP(=O)(OCC)C(=C(Cl)Cl)C(C(=O)OC)C(=O)OC	-4.1	-13.3
CC1(C)CC(n2cnnc2)CC(C)(C)N1	-2.1	-4.3
CCCCCCCCCC1c2c(c3ccccc3oc2=O)OC(=N)C1C#N (configuration not stated)	-2.6	-5.8
CCOC(=O)c1c(C)n(C(C)C)c2ccc(OC(=O)c3ccc(C)cc3)cc12	3.9	6.9
O=C1C2CCCN2C(c2cccnc2)N1c1ccccn1 (configuration not stated)	7.3	2.5
COC(=O)[C@H](Cc1ccccc1)NC(=O)c1cn(Cc2c(F)cccc2F)nn1	7.7	5.5
COc1cc(CC(=O)N2CCN(C)C3(CCN(C)CC3)C2)cc(OC)c1	4.6	-1.1
COc1ccc(-c2nn(CCC#N)cc2C(=O)OCc2ccccc2)cc1[N+](=O)[O-]	-1.3	-2.3
CCOP(=O)(OCC)C1(C(=O)O)CCCC1	-11.1	-14.5
N=c1ccccn1Cc1ccccc1	-1.9	-3.9
N#Cc1c(Cl)cccc1Cl	-6.7	-11.5

Of the compounds above, these contain four or more nitrogen atoms:
SMILES	NPYLR7 agonist	NPYLR7 agonist max-min
COCCNC(=O)CN1C(=O)CSC(c2ccccc2Cl)c2c(-c3ccccc3)nn(-c3ccc(OC)cc3)c21 (configuration not stated)	-1.2	3.1
Cn1nnc(Nc2nnn(C)n2)n1	-10.1	-13.9
COc1ccc(-n2nc(-c3ccccc3)c3c2N(CC(N)=O)C(=O)CSC3c2ccc(F)cc2)cc1 (configuration not stated)	7.9	8.9
Cn1cc(C2=C(c3cn(C4CCN(Cc5ccccn5)CC4)c4ccccc34)C(=O)NC2=O)c2ccccc21	-5.3	-10.4
CN1CCN(C)C2(CCN(c3cc(NCCO)ncn3)CC2)C1	13.9	10.0
CC1(C)CC(n2cnnc2)CC(C)(C)N1	-2.1	-4.3
O=C1C2CCCN2C(c2cccnc2)N1c1ccccn1 (configuration not stated)	7.3	2.5
COC(=O)[C@H](Cc1ccccc1)NC(=O)c1cn(Cc2c(F)cccc2F)nn1	7.7	5.5
COc1ccc(-c2nn(CCC#N)cc2C(=O)OCc2ccccc2)cc1[N+](=O)[O-]	-1.3	-2.3

The list goes on:
SMILES	NPYLR7 agonist	NPYLR7 agonist max-min
N=C1OC2=C(C(=O)CCC2)C2(C(=O)Nc3ccccc32)C1C(=O)OCc1ccccc1 (configuration not stated)	-8.5	-13.1
Brc1cccc(C2CC(c3cccnc3)=Nc3nnnn32)c1 (configuration not stated)	4.7	2.9
O=C(NCc1cnn2cccnc12)C1CC2(CCNCC2)CN1 (configuration not stated)	9.1	3.9
CCC1(c2cccc(O)c2)CCCCN(C)C1 (configuration not stated)	16.0	0.7
CCCc1[nH][nH]c(=O)c1C1(O)C(=O)NC(=O)NC1=O	1.0	51.5
Cc1cccc(N2C(=O)NC(=O)/C(=C/c3cn(C)c4ccccc34)C2=O)c1	52.9*	70.5*
CC1(C)CC(Nc2nc(Cl)c(C#N)c(Cl)c2Cl)CC(C)(C)N1	-10.4	-16.3
COc1ccc(-n2nc(C(C)(C)C)c3c2N(CC(=O)NCC2CCCO2)C(=O)CSC3c2cccc(C)c2)cc1 (configuration not stated)	9.5	-0.3
COc1ccc(Cl)c2sc(N(CCN(C)C)C(=O)Cc3ccccc3)nc12	5.4	2.9
COCc1ccc(CN2CCCC(C(=O)c3ccc(SC)cc3)C2)o1 (configuration not stated)	17.7	7.9
CC(=O)c1ccc(S(=O)(=O)N2CCN(CCOC(c3ccccc3)c3cccc(C(F)(F)F)c3)CC2)cc1 (configuration not stated)	27.5	28.5
O=C(c1cc(Cl)sc1Cl)N1CCN(CCOC(c2ccccc2)c2ccccc2)CC1	15.1	7.5
CC(C)CC1c2c(c3ccccc3oc2=O)OC(=N)C1C#N (configuration not stated)	-1.0	-0.1
CN(Cc1cnccn1)C(=O)Nc1ccc(C#N)c(C(F)(F)F)c1	-25.5	-24.8
C[C@@H]1O[C@@H](O[C@@H]2C=C3CCC4C(CC[C@]5(C)[C@@H](c6ccc(=O)oc6)CC[C@]45O)[C@@]3(C)CC2)[C@H](O)[C@H](O)[C@H]1O (some centres not stated)	9.5	-6.4
COCCNC(=O)CN1C(=O)CSC(c2ccccc2OC)c2c(C(C)(C)C)nn(-c3ccccc3Cl)c21 (configuration not stated)	15.0	26.0
C=Cn1ccnc1P(=S)(c1ccc(N(C)C)cc1)c1nccn1C=C	-2.6	-6.4
Cc1ncc([N+](=O)[O-])n1CCOc1nonc1N	-1.5	-3.6
O=C(c1scc2c1CCCC2)N1C[C@H]2C[C@@H](C1)c1cccc(=O)n1C2	15.1	4.5
COc1ccc2c(c1)c(C(=O)N1CCN(C(=O)C3CCCO3)CC1)nn2Cc1ccc(C(=O)N2CCOCC2)cc1 (configuration not stated)	-1.5	7.0
CN1CC2(CCN(c3nccc(N)n3)CC2)CC1C(=O)O (configuration not stated)	10.8	8.6
Clc1ccc2c(N3CCCC4(CCNC4)C3)ccnc2c1 (configuration not stated)	-9.3	-15.5
NC(=O)CS(=O)C(c1ccccc1)c1ccccc1 (configuration not stated)	-7.7&-5.4	0.9&-8.8
Cn1cc[n+](C)c1P(=S)(c1ccccc1)c1ccccc1	4.7	3.8
CS(=O)(=O)c1ccc(-c2cccc3c2CCNC3)cc1	4.8	0.7
Cc1nn(C)c(C)c1CC(=O)NC(C)Cc1cccc(Cl)c1 (configuration not stated)	6.6	4.8
O=C(COc1ccccc1)N(CCN1CCOCC1)CC(=O)N(Cc1ccc(F)cc1)Cc1ccco1	-9.6	-12.9
CC1(C(=O)O)CCCC2(C)c3cc(O)ccc3CCC12 (configuration not stated)	-6.9	-10.0
Cc1cc(C=C2C(=O)NC(=S)NC2=O)c(C)n1-c1ccccc1Cl	-3.9	-8.9
Oc1ccc(C=NNP(=S)(c2ccccc2)c2ccccc2)cc1O	5.8	4.5
Cc1cc(CC(=O)NC2C3COCC2CN(CC2CC2)C3)on1 (configuration not stated)	21.5	12.9
O=C(O)c1nn(Cc2ccc(Cl)cc2Cl)c2ccccc12	1.7	-21.2
O=C(Cc1nc(-c2ccncc2)n[nH]1)N1CCCC2(CCNC2)C1 (configuration not stated)	0.1	-1.5
CCC1C2CC3C4N(C)c5ccccc5C45CC(C2C5O)N3[C@@H]1O (some centres not stated)	-1.8	-3.1
Cc1nnc(NC(=O)c2cccn(Cc3ccccc3C)c2=O)s1	15.7	9.1
COCCNC(=O)CN1C(=O)CSC(c2ccc(F)cc2F)c2c(C(C)(C)C)nn(-c3ccc(C)cc3C)c21 (configuration not stated)	23.1	22.8
CCOC(=O)C1C(=N)Oc2cc(C)[nH]c(=O)c2C12C(=O)N(Cc1cccc(C)c1)c1ccccc12 (configuration not stated)	-1.2	-9.2
CC#CCN1CC=C(c2cnn(CCCC)c2)CC1	15.6	0.2
Cc1cc(C=C2C(=O)NC(=S)NC2=O)c(C)n1-c1ccccc1	1.4	-4.6
Nc1nc(N)nc(NC2CC2)n1	0.7	0.8
Cn1cc(C(O)CN2CCCCC2)c2ccccc21 (configuration not stated)	4.9	6.1
CN(C)c1ccc(C=C2C(=O)NC(=O)NC2=O)cc1	5.1&-0.6	6.7&-3.3
O=[N+]([O-])c1cc(Cl)ccc1N1CCNCC1	3.8	6.9
Cc1cccc(Cn2cccc(C(=O)Nc3ccccc3C#N)c2=O)c1	14.6	5.2
Cn1cnnc1CCC(=O)N1C[C@@H](c2ccccc2)[C@@H]2[C@H]1C1CCN2CC1	6.4	2.1
O=C1NC(=O)C(C2CCS(=O)(=O)C2)C(=O)N1 (configuration not stated)	0.5	2.9
Cc1ccc(Cn2cccc(C(=O)Nc3cc(C)on3)c2=O)cc1	16.2	7.2
CCCN1C(=O)C2(CCCCC2)NC1c1cn(C)c(=O)n(C)c1=O (configuration not stated)	-5.8	-8.0
CCCCCCCC1c2c(c3ccccc3oc2=O)OC(=N)C1C#N (configuration not stated)	0.5	-0.4
CN1CCC(c2c[nH]c3ccc(O)cc23)CC1	7.5	-12.1

(continued)
SMILES	NPYLR7 agonist	NPYLR7 agonist max-min
COc1cc(OC)c(OC)cc1C=NNP(=S)(c1ccccc1)c1ccccc1	-1.0	-3.9
CCNC(=O)C[C@@H]1N=C(c2ccc(Cl)cc2)c2cc(OC)ccc2-n2c(C)nnc21	2.7	-3.1
COc1nc(NC(C)C)nc(NC(C)C)n1	-7.6	-14.5
COc1ccc2c(c1)[C@]13CCCC[C@@H]1[C@H](C2)N(C)CC3	-16.2&7.6	-20.7&6.8
CC1(C)C2SCC(=O)N2CCN1CC(=O)NN (configuration not stated)	1.6	-3.2
CCC(O)Cn1cc(C2=CCN(Cc3c(F)cc(F)cc3F)CC2)cn1 (configuration not stated)	1.3	-6.8
CCOC(=O)C1(CCc2ccccc2)CCN(Cc2ccco2)CC1	3.2	6.7
CC1=NN=C(c2ccc(N)cc2)c2cc3c(cc2C1)OCO3	-6.5	-2.1
O=c1[nH]c(CN2CCC3CCCCC3C2)nc2ccsc12 (configuration not stated)	1.5	0.4
CN[C@@H]1C[C@@H](c2ccc(Cl)c(Cl)c2)c2ccccc21	-10.6&5.5	-15.2&-45.7
CCN1C(=O)C2(c3ccccc31)c1c(cc(C)[nH]c1=O)OC(=N)C2C(=O)OC (configuration not stated)	-2.7	-7.3
COC(=O)c1ccc(COC(CN2CCN(C(=O)Cc3cccs3)CC2)c2ccc(Cl)cc2)cc1 (configuration not stated)	-2.9	4.5
CC1C(c2ccccc2)=NOC(C)(C(=O)c2ccc(Br)cc2)N1O (configuration not stated)	1.2&15.1	2.0&4.4
Cc1cc(NC(=O)c2cccn(Cc3ccccc3Cl)c2=O)c2ccccc2n1	18.8	10.0
COc1cc(C=C2C(=O)NC(=S)NC2=O)cc(OC)c1OC	-0.7	-6.3
CNc1ncc(CN(C)c2cc(OC)ncn2)cn1	10.0	10.1
COc1cccc(C(CN2CCN(C(=O)COc3ccc(Cl)cc3)CC2)OCc2ccc(C#N)cc2)c1 (configuration not stated)	1.8	-0.6
CN(C)CCN(C)CCc1ccc(Cl)c(Cl)c1	3.4&-5.1	-0.5&-10.5
CC(=O)c1cccc(CN2CCCC(C(=O)c3sccc3C)C2)c1 (configuration not stated)	11.5	6.8
Cc1ccc(C)c(Cn2cccc(C(=O)Nc3ccc(Cl)c([N+](=O)[O-])c3)c2=O)c1	21.0	15.6
Oc1ccc(C2=CCN(CC(O)c3ccc(F)cc3)CC2)cc1 (configuration not stated)	0.8	1.5
O=C(CN1CCOCC1)c1ccc(O)cc1O	-2.7	4.3
Cc1cc2ccccn2c1C(=O)c1ccc(S(=O)(=O)N(CCCl)CCCl)cc1	-3.0	-7.8
O=C(CN1CN(c2ccccc2)C2(CCNCC2)C1=O)N1CCCC1	-5.6	-14.5
CCOP(=O)(OCC)C(NC(=O)OC)C(F)(F)F (configuration not stated)	-0.5	-2.9
CNC(C)c1nc2ccccc2c(=O)n1-c1ccccc1Cl (configuration not stated)	9.7	18.3
CN(Cc1cccnc1)c1ccc(C#N)c(C(F)(F)F)c1	17.2	13.6
O=C(O)c1ccc(NC(=O)N2C[C@H]3C[C@@H](C2)c2cccc(=O)n2C3)cc1	3.1	0.9
NS(=O)(=O)c1ccc(NC(=O)c2cccn(Cc3ccccc3Cl)c2=O)cc1	11.4	7.0
N[C@@H](Cn1ccc(=O)[nH]c1=O)C(=O)O	2.0	-14.8
C[C@@H]1CN(C2CCC(C#N)(c3ccc(F)cc3)CC2)CC[C@]1(C(=O)O)c1ccccc1 (some centres not stated)	5.2	2.4
COc1ccc(-n2nc(C(C)(C)C)c3c2N(CC(=O)NC2CC2)C(=O)CSC3c2ccccc2C)cc1 (configuration not stated)	19.8	17.7
Cc1cccc(OCC(=O)N2CCCN3CCC[C@H]3C2)c1C	-3.9	-4.3
CC(C)n1cnc2c(C(=O)N[C@H]3CN4CCC3CC4)cc(Cl)cc21	1.2	-13.4
O=S(=O)(c1ccccc1OC(F)(F)F)N1CCN(CCOC(c2ccccc2)c2ccc(F)c(F)c2)CC1 (configuration not stated)	1.1	-0.1
O=S(=O)(c1ccccc1OC(F)(F)F)N1CCN(CCOC(c2ccccc2)c2ccccc2)CC1	2.5	4.3
CCCCC/C=C\C/C=C\C/C=C\C/C=C\CCCC(=O)NCC(=O)O	5.1	1.1
COc1ccc(C2NCc3ccc4c(c3-n3cccc32)OCO4)cc1 (configuration not stated)	-4.0	-6.9

One compound at a time, as listed above.
Profile of CCCCC/C=C\C/C=C\C/C=C\C/C=C\CCCC(=O)NCC(=O)O → NPYLR7 agonist: 5.1; NPYLR7 agonist max-min: 1.1
Profile of O=S(=O)(c1ccccc1OC(F)(F)F)N1CCN(CCOC(c2ccccc2)c2ccc(F)c(F)c2)CC1 (configuration not stated) → NPYLR7 agonist: 1.1; NPYLR7 agonist max-min: -0.1
